# Vaccinia mCherry – qHTS for Stage-Specific Inhibitors of Vaccinia Orthopoxvirus: mCherry Reporter Primary qHTS; Vaccinia virus mCherry reporter infection, fluorescence; about a quarter of the inactives have no number; 310,000 compounds, 0.63% hits; AID 720579, 2013; Potency, µM (highest dose often 36.5 µM), for inactives: at the highest dose activity change, negative = inhibition, usual class: inhibitors; active = well fitted inhibition curve with a large enough effect; inconclusive = small, poorly fitted or top-dose-only effect; inactive = no such curve, though single readings can be large or run the other way; tested in A549 cells; note: nearly all actives have a fitted effect of over 35% in size; inactives centre near -10
# Vaccinia Venus – qHTS for Stage-Specific Inhibitors of Vaccinia Orthopoxvirus: Venus Reporter Primary qHTS | Vaccinia virus Venus reporter expression, fluorescence | Potency, µM (highest dose often 36.5 µM), inactives show at the highest dose activity change, negative = inhibition, actives largely listed as inhibitors | 330,000 compounds, 0.46% hits; active means well fitted inhibition curve with a large enough effect; inconclusive means small, poorly fitted or top-dose-only effect; inactive means no such curve, though single readings can be large or run the other way; tested in A549 cells; note: nearly all actives have a fitted effect of over 30% in size; inactives centre near -10
# Active calls of the source: *; i = inactive; ? = inconclusive; . = no result given; & = joins results of further samples; [ ] = another dose, or the depositor's remark. % is set by controls: 0 for no effect and ±100 for the full control effect; potency is the fitted concentration of half-maximal effect.
SMILES,Vaccinia mCherry,Vaccinia Venus
CSc1cccc(NC(=S)NN(C)C)c1,-8.6%,-5.6%
COc1ccc(CCNC(=O)CN2c3cccc4cccc(c34)S2(=O)=O)cc1OC,i,-5.2%
O=C(c1cc(C2CC2)nn1-c1ccccc1)N1CCN(S(=O)(=O)c2ccccc2F)CC1,-14.3%,1.2%
CSc1ccc(C(c2c(O)c3ccccc3oc2=O)c2c(C)n(C)n(-c3ccccc3)c2=O)cc1 (configuration not stated),-11.2%,-7.3%
CCOc1ccccc1CNC(=O)Cn1ccc2cc(S(=O)(=O)N3CCCC3)ccc21,i,-5.3%
CCN(CC)C(=O)COc1coc(CN2CCN(c3cccc(Cl)c3)CC2)cc1=O,-11.9%,-6.8%
COc1ccc(N2CCN(Cc3csc(C)c3-c3ccc(C)cc3)CC2)cc1,-12.8%,-2.4%
Cc1ccc(NC(=O)CNCc2ccccc2)c(Br)c1,-13.9%,-7.6%
COc1ccc(N2CCN(C(=O)C3CCCN(C(=O)c4cc5sccc5n4C)C3)CC2)cc1 (configuration not stated),-18.0%,-19.8%
Cc1cc(C(=O)NCc2cc(C(=O)O)oc2C)c(C)o1,-17.4%,-21.7%
CC(C)Oc1ccc(F)cc1-c1cc(C(=O)Nc2ccc(C(C)(C)C)cc2)[nH]n1,-6.8%,-17.3%
CC(=O)Nc1ccc(C(=O)N2CCCCC2c2cc(C(=O)Nc3cccc(C#N)c3)no2)cc1 (configuration not stated),10.5%,-5.6%
O=S(=O)(Nc1cccc2ccccc12)N1CCCC1,-1.5%,-16.2%
Cc1ccc(S(=O)(=O)N2N=C3CCCCC3C2(O)C(F)(F)F)cc1 (configuration not stated),-14.1%,1.3%
CN(C)c1oc(-c2ccco2)nc1C#N,-14.9%,-0.7%
COc1ccc(CCNC(=O)c2cnn(-c3nccc(-c4cccs4)n3)c2C)cc1OC,-12.8%,?
COc1cccc(NC(=S)N2CCC(C(=O)c3ccc(F)cc3)CC2)c1,-20.6%,-11.8%
O=C(NC1CCCc2ccccc21)c1cccc(Br)c1 (configuration not stated),-26.6%,-26.3%
C[C@H](CO)N1C[C@H](C)[C@H](CN(C)C(=O)Nc2ccc(C(F)(F)F)cc2)Oc2c(NC(=O)c3ccncc3)cccc2C1=O,8.6%,-18.4%
COc1ccc(CCn2c(N3CCN(C)CC3)nc3c2c(=O)[nH]c(=O)n3C)cc1,.,6.5%
C#CCSc1nnc(-c2ccccc2)c(=O)[nH]1,i,-3.5%
COc1ccc(C2=NOC(COC(=O)c3ccc4ccccc4n3)C2)cc1 (configuration not stated),i,-6.9%
CCOC(=O)N1Cc2cc3ccccc3nc2C1,i,-5.7%
COc1ccc(C(N)=O)cc1NC(=O)CC(O)(C(F)(F)F)C(F)(F)F,-24.9%,-6.2%
COc1ccc(CNC(=O)Cc2csc(Nc3nc(=S)[nH]c4ccccc34)n2)cc1,-2.7%,5.1%

# Going on with the list.
SMILES,Vaccinia mCherry,Vaccinia Venus
COc1ccc(C(C)(NC(C)=O)c2nc(-c3cccc(C(F)(F)F)c3)cs2)cc1 (configuration not stated),i,0.8%
C/C(=N\N1CCN(C2c3ccccc3-c3ccccc32)CC1)c1cccnc1,.,-8.9%
CC(C)c1nnc(NC(=O)C2CC(=O)N(CCc3ccc(F)cc3)C2)s1 (configuration not stated),i,1.6%
COc1ccc(OCC(=O)NCc2cccnc2)cc1,-1.3%,-1.6%
Cc1nn(C)c(C)c1NS(=O)(=O)c1ccc(OC(F)(F)F)cc1,?,-13.7%
CC1CCC(NC(=O)c2ccc3c(c2)N(Cc2cccc(Cl)c2)C(=O)c2ccccc2S3(=O)=O)CC1 (configuration not stated),-11.0%,-6.2%
CC(C)(C)N1C(=O)[C@H]2[C@@H](c3ccc(Br)cc3)N3C(=O)N(c4ccccc4)C(=O)[C@@]3(C)[C@H]2C1=O,i,-1.7%
CCN1CCN(CCCNC(=O)c2ccc3nc(Cc4ccc(OC)cc4)oc3c2)CC1,-9.5%,-2.7%
CN(C)CCn1c(=S)[nH]c2ccccc2c1=O,.,-8.8%
Cc1cccc(C2NC(c3cccc(C)c3)C([N+](=O)[O-])C(C)(C)C2[N+](=O)[O-])c1 (configuration not stated),-7.8%,-8.3%
CCCCn1nnnc1C1(C)CCC(=O)N1c1ccc(N2CCOCC2)cc1 (configuration not stated),21.6%,0.0%
Cc1nn(-c2ccccc2)c2nc(C3CC3)cc(C(=O)Nc3cccc(F)c3)c12,-26.2%,-28.0%
COc1ccc(Cl)cc1NC(=O)c1nnn(CC(=O)Nc2ccc(C)c(C)c2)c1N,-16.6%[7.34 µM],-4.6%[7.34 µM]
O=C1NC[C@H](CC2CCCCC2)N(CCc2cccc(F)c2)C1=O,i,-20.9%
O=C(COc1ccc(Cl)cc1)NCc1nnc(SCC(=O)NC2CCCC2)o1,-2.4%,-8.5%
C#CCOCCOCCOCCNc1nc(N2CCN(C(=O)[C@H](CCC(=O)O)n3cc(C(N)CC(C)C)nn3)CC2)nc(N2CCN(C(=O)[C@H](Cc3cc4ccccc4[nH]3)n3cc(C(N)CC(C)C)nn3)CC2)n1 (some centres not stated),-14.7%,3.2%
O=C(CCc1ccccc1)N1N=C(c2ccncc2)CC1(O)C(F)(F)F (configuration not stated),-4.4%,-15.6%
Cc1ccc(S(=O)(=O)N2CCC(C(=O)Nc3ccccc3N3CCCCC3)CC2)cc1C,-8.5%,-6.9%
O=C(C1CCCN(S(=O)(=O)c2ccc(F)cc2)C1)N1CCCCCC1 (configuration not stated),-1.8%,-21.0%
O=CNC(=O)c1ccccc1C(=O)O,-9.3%,-0.3%
O=S(=O)(CC(CN1CCOCC1)N1CCOCC1)c1ccccc1 (configuration not stated),-4.1%,-7.0%
O=C(Nc1cccc(F)c1)Nc1ccnn1C1CCN(C(=O)c2ccccn2)CC1,i,-10.4%
CCC(=O)Nc1ccc(C(=O)N2CCN(C(=O)c3ccco3)CC2)cc1,-3.4%,-17.0%
CCOc1ccccc1Nc1nnc(SCC(=O)Nc2nc(-c3ccc(OC)cc3)cs2)s1,-8.6%,-15.4%
O=S(=O)(NCCSc1ccccc1)c1ccc(F)cc1,-4.2%,-27.9%

# Another view of part of the listing above:
COc1ccc(CCn2c(N3CCN(C)CC3)nc3c2c(=O)[nH]c(=O)n3C)cc1
  Vaccinia mCherry = .; Vaccinia Venus = 6.5%
C#CCSc1nnc(-c2ccccc2)c(=O)[nH]1
  Vaccinia mCherry = i; Vaccinia Venus = -3.5%

# (next part)
SMILES,Vaccinia mCherry,Vaccinia Venus
CCc1nc2c(OCCOc3ccc(F)cc3)cccn2c1N(C=O)Cc1ccc(OC)cc1,i,-0.9%
CC1=NN(C(=O)c2ccccc2Cl)C(O)(c2ccccc2)C1 (configuration not stated),?,-13.7%
Cc1noc(C)c1NC(=O)N(C)C[C@@H]1OCc2cn(nn2)CCCC(=O)N([C@H](C)CO)C[C@H]1C,i,7.1%
COc1ccc(CN2C[C@@H](CO)O[C@@H](n3cnc4c(NCc5ccco5)ncnc43)C2)cc1,i,-1.5%
FC(F)(F)c1cccc(NC(=S)N2CCN(c3ccccc3)CC2)c1,-2.4%,-19.5%
CCC(C(=O)n1cccc1C#N)c1ccccc1C (configuration not stated),?,?
CCNc1nc2ccccc2[nH]1,-21.0%,-13.0%
COc1cc(C(=O)Oc2ccc3c(c2)OCC3=O)cc(OC)c1OC,-0.9%,-14.8%
CCCCc1cc(=O)oc2cc(C)cc(OCC(=O)N3CCC(C(=O)O)CC3)c12,-8.4%,-3.2%
CN(C)C(=S)SCC(=O)NCc1ccc(F)cc1,-5.3%,-2.4%
O=C(c1ccc(NS(=O)(=O)c2ccccc2)cc1)N1CCOCC1,-7.3%,-15.4%
COc1cccc(CC(=O)OCC(=O)N(C)CC(=O)Nc2ccc(F)cc2)c1,-15.5%,-16.9%
CCOC(=O)C1=C(c2ccccc2)NC(=O)NC1c1cc(OC)c(OC)cc1OC (configuration not stated),i,-17.4%
CCCCCNC(=O)c1ccc2c(=O)n(CC3CCCO3)c(=S)[nH]c2c1 (configuration not stated),-9.8%,-2.5%
CCOc1ccc(CCNC(=O)Cn2ncc3c([nH]c4ccccc43)c2=O)cc1OCC,6.0%,0.3%
Cn1c(=O)c2c(nc(N/N=C/c3cccs3)n2Cc2ccc(Br)cc2)n(C)c1=O,?,?
C[C@H](NC(=O)c1nc[nH]c1C(=O)N1CCNCC1)C(=O)OC(C)(C)C,-8.7%,6.4%
CCOc1ccc(CCN2C(=O)c3cccnc3C2=O)cc1OCC,-20.1%,-14.2%
Cc1cc(C(=O)Nc2ccc(S(=O)(=O)Nc3onc(C)c3C)cc2)c(C)o1,-10.9%,-5.9%
CC(OC(=O)c1cc(=O)[nH]c2ccccc12)C(=O)Nc1ccc(Cl)cn1 (configuration not stated),-13.5%,-9.1%
CCN(CC(=O)Nc1ccc(NC(C)=O)cc1)C(=O)C1CCCC1,-12.2%,-6.4%
Cn1nnnc1SCCNCc1ccccc1OCc1ccccc1F,-6.9%,-13.5%
CCCN1CCN(C(=O)Cn2c(-c3cccs3)cc3cc(F)ccc32)CC1,-12.4%,-19.0%
Cc1ccc(C(=O)Oc2cc(C)[nH]c(=O)c2[N+](=O)[O-])cc1,i,-3.4%
O=C(NCCS(=O)(=O)N1CCN(c2cccc(Cl)c2)CC1)c1ccc2c(c1)OCO2,?,-18.2%

# The closing 3 records of the part before come first, to join the parts.
SMILES,Vaccinia mCherry,Vaccinia Venus
CCCN1CCN(C(=O)Cn2c(-c3cccs3)cc3cc(F)ccc32)CC1,-12.4%,-19.0%
Cc1ccc(C(=O)Oc2cc(C)[nH]c(=O)c2[N+](=O)[O-])cc1,i,-3.4%
O=C(NCCS(=O)(=O)N1CCN(c2cccc(Cl)c2)CC1)c1ccc2c(c1)OCO2,?,-18.2%
CCOc1ccc(NC(=O)Cn2nnc(C(=O)NCc3ccc4c(c3)OCO4)c2N)cc1,-8.9%[7.34 µM],-20.7%[7.34 µM]
CCc1ccc(N(C(=O)c2snc(C(N)=O)c2N)C(C(=O)NC2CCCC2)c2ccco2)cc1 (configuration not stated),-18.2%,-15.6%
CC(C)(CO)CNC(=O)CC1C(=O)NCCN1CC(c1ccccc1)c1ccccc1 (configuration not stated),-0.5%,-4.9%
CCOc1ccccc1N(C(=O)c1snc(C(N)=O)c1N)C(C(=O)NC1CCCC1)c1cccs1 (configuration not stated),-20.1%,-13.3%
COc1ccc(/C=C(\NC(=O)c2ccccc2)C(=O)NCCN2CCOCC2)cc1OC,14.5%,-1.1%
O=C(CN(Cc1ccccc1)C(=O)CNS(=O)(=O)c1ccc(F)cc1)NCC1CCCO1 (configuration not stated),i,0.9%
O=C(Nc1ccc2c(c1)CCCN2C(=O)c1cccs1)c1ccccc1Cl,-6.5%,3.1%
O=C(CNCc1cccs1)Nc1ccc(S(=O)(=O)N2CCCCC2)cc1,i,-1.3%
Cc1cccc(C(=O)NC(=S)Nc2cccc3nc(C)ccc23)c1,i,-26.9%
COc1ccc(-c2csc(NC(=O)CSc3ncn[nH]3)n2)cc1OC,-16.0%,-24.1%
O=C(Nc1cccc(F)c1)c1ccc2snnc2c1,-8.4%,-11.0%
CCc1ccc(C2C(C(=O)Nc3ccccc3)=C(C)Nc3nc(SCC(=O)c4ccc(C)cc4)nn32)cc1 (configuration not stated),-10.6%,-1.5%
CCOC(=O)c1ccc(NC(=O)c2ccccc2[N+](=O)[O-])cc1,-26.9%,-18.1%
Cc1n[nH]c(=O)c2c(NC(=O)CSc3nc4ccccc4c(=O)n3C(C)C)oc(C)c12,-27.5%,-17.1%
CN(CC(=O)Nc1cccc(F)c1)C(=O)c1cccnc1Sc1ccc(Cl)cc1,-29.4%,-17.5%
Cc1cc(C)[n+]2n1C(=O)C(c1ccccc1)=C2[O-],-12.3%,-16.2%&-5.9%
C[C@H](N)CCCP(=O)(O)O,-10.5%,-15.7%
COc1ccc2cc(-c3nc(-c4ccc(N(C)C)cc4)no3)c(=O)oc2c1,-3.1%,2.2%
CC(=O)Nc1ccc(S(=O)(=O)NNC(=O)C2CCCCC2)cc1,-7.1%,-9.2%
COc1ccc2c(c1)C(CC(C)=O)N(c1ccc(-c3cccnc3)cc1)C(c1ccsc1)=C2 (configuration not stated),11.1%,-0.9%
CCCCNC(=O)Nc1c(C(=O)OC)[nH]c2ccc(C)cc12,.,-24.4%
COc1ccc(-c2cc3ccc(O)c(CN4CCC(C)CC4)c3oc2=O)cc1,-16.6%[7.34 µM],-8.5%[7.34 µM]
COCCNC(=O)C(c1ccco1)N(C(=O)Cn1nnc2ccccc21)c1ccccc1C (configuration not stated),-11.7%,-8.3%
C[C@]12CCC3C(CC[C@H]4C[C@H](O)CC[C@]34C)C1C[C@H](O)[C@@H]2O (some centres not stated),-14.7%,-8.6%
Cc1cccc(NC(=O)NC2(C)CCS(=O)(=O)C2)c1 (configuration not stated),14.2%,-4.3%
Cc1cccc(OCCC(=O)OCC(=O)N2c3ccccc3NC(=O)C2(C)C)c1,i,-11.3%
CN(Cc1cccnc1)C(=O)CNC(=O)c1ccc(Cl)cc1Cl,8.2%,-3.7%
COc1cccc(CNC(=O)c2cc(C)nc3c2c(C)nn3-c2cccc(F)c2)c1,-2.4%,-2.8%
Cn1c(O)c(C=Nc2ccccc2Sc2ccccc2)c(=O)n(C)c1=O,-10.3%,-3.4%
Cc1ccc(C)n1-c1ccc(-c2ccn[nH]2)cc1,-11.6%,-2.8%

# Entries of single compounds from above.
# Profile of C#CCSc1nnc(-c2ccccc2)c(=O)[nH]1 : Vaccinia mCherry = i; Vaccinia Venus = -3.5%
# Profile of O=C(CNCc1cccs1)Nc1ccc(S(=O)(=O)N2CCCCC2)cc1 : Vaccinia mCherry = i; Vaccinia Venus = -1.3%
